# ClpP mod – qHTS Assay for Activators of ClpP; ATP-dependent Clp protease proteolytic subunit (Bacillus subtilis (strain 168)), P80244; purified B. subtilis ClpP, FRET peptide cleavage, 20 min; Potency, µM (series often up to 57.5 µM), for the others: at the highest dose activity change, negative = active; 340,000 tested, 1.9% active; AID 651965, 2013; active = well fitted falling curve with a large enough effect; inconclusive = small, poorly fitted or top-dose-only effect; inactive = no such curve, though single readings can be large or run the other way; also: potency is read from the fitted curve at half-maximal effect; the source files actives as falling curves though it sought activators and does not explain the sign; nearly all actives have a fitted effect of over 65% in size; many hits overshoot -100%
# Target sequence (P80244 whole entry, looked up): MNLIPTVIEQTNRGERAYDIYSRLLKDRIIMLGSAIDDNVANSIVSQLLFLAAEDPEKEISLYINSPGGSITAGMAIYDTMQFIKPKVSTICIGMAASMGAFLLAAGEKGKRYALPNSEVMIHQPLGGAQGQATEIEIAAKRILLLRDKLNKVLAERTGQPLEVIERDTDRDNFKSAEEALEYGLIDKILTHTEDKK
#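 ClpP 10 microg/mL final, pH 8 Tris/KCl buffer with BSA, glycerol, Tween-20; compound pinned in; FRET-FV substrate; RT 20 min; Ex320/Em430; ΔFRET vs ADEP 5.8 microM, DMSO, no enzyme.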
# TRPML1 blocker – inhibitors of human TRPML1 channel; Q9GZU1; TRPML1-inducible cells, Ca2+ dye fluorescence, FDSS; hits give low values; inhibition of EC80 agonist-evoked calcium signal; activity change, negative = inhibition, % (concentration not given with the values); 390,000 tested, 0.02% active; AID 624415; in the data active means activity change below about -50%; inconclusive means about -30% to -50%; inactive means above about -30%;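 also: stimulus is agonist 54-4 at its EC80 concentration; % is scaled to controls: 0 for no effect and ±100 for the full control effect; compound concentration not given in the record; the text of the record puts the active cut at -80%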
# Target sequence (Q9GZU1 whole entry, looked up): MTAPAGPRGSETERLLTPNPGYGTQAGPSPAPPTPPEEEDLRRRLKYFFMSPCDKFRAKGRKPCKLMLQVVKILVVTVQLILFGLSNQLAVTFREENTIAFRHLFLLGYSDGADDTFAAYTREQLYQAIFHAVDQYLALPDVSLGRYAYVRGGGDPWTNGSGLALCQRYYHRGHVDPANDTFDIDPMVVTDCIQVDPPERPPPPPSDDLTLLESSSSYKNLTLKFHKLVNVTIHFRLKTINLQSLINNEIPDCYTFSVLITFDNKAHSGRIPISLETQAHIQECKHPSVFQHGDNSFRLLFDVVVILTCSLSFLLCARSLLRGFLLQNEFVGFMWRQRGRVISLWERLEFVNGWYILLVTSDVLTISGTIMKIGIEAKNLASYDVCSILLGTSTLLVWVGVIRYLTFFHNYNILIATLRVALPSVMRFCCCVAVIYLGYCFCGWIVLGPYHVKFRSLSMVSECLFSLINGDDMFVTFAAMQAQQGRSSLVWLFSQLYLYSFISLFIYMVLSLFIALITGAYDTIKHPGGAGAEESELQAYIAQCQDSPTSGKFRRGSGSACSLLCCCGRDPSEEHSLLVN
#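 Calcium fluorescence in TRPML1-DL cells induced overnight with Tet: a 110 s read after compound pin addition, then a 110 s antagonist read after challenge with 54-4 at 4 uM final (EC80).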
# Menin-MLL FL inh – inhibitors of human menin-MLL interaction, wild-type MLL peptide. Fluorescence polarization, fluorescein-MLL peptide displacement from menin. FP activity change, % at 61.4 µM. 290,000 tested, under 10 active; inconclusive = falling polarisation curve, or a change in total fluorescence; inactive = total fluorescence flat and polarisation flat or rising; no compound was filed as active; the % refers to the polarisation; negative = inhibition;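 also: % of control where 0% means no effect; inhibitors lower the polarisation; unlabelled MLL peptide was the positive control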
# TRPML1 agonist – activates the human TRPML1 channel. TRPML1-expressing cells, Ca2+ dye fluorescence, FDSS; host cell line not named in the record; reference of the full effect not given here. activation, % (concentration not given with the values). 410,000 tested, 0.12% active. AID 624414; in the data active = activation above about 50%; inconclusive = about 30% to 50%; inactive = below about 30%; also: 0% is about no effect; the text of the record puts the active cut at 80%
#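 In this qHTS format, compounds were pin-transferred onto Ca8-dye-loaded TRPML1-DL cells induced with Tet overnight, and intracellular Ca2+ fluorescence was recorded kinetically for 110 s after a 10 s baseline. A subsequent 4uM final 54-4 (EC80) addition followed by a second 110 s read served as the antagonist phase.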
# gsp ag – agonists of gsp mutant (McCune-Albright syndrome) | gsp mutant cells, cAMP HTRF, 30 min; control for the full effect not named in the record | AID 624287 | Potency, µM (series often up to 76.9 µM), without a hit: at the highest dose activation (cAMP increase), usual class: activators | 340,000 tested, 0.13% active; active = well fitted activation curve with a large enough effect; inconclusive = small, poorly fitted or top-dose-only effect, or another doubt; inactive = no such curve, though single readings can be large or run the other way; cell line not stated here;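 also: phosphodiesterase inhibitor Ro 20-1724 added with compounds to block cAMP breakdown; potency is read from the fitted curve at half-maximal effect; nearly all actives have a fitted effect of over 60% in size; about a fifth of the inactives were tested at one dose only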
#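 Cells stably selected in G418 were plated at 2000/well, grown 16-24 hr, then given compounds in DMSO with the PDE inhibitor […] (300 uM solution added) for 30 min at 37C; cAMP was read by HTRF.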
# gsp antagonist – antagonists of gsp mutant (McCune-Albright syndrome); gsp-mutant cells, cAMP HTRF, 30 min; control for the full effect not named in the record; Potency, µM (doses to about 76.9 µM), inactives show at the top dose activity change, negative = inhibition, hits mostly inhibitors; 340,000 tested, 0.4% active; AID 624288; active = falling curve of any shape with a large fitted effect; inconclusive = falling curve, mostly with a smaller effect; inactive = flat or rising curve; cell line not stated here;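 also: intracellular cAMP measured with PDE inhibitor Ro 20-1724 present during compound exposure; potency is read from the fitted curve at half-maximal effect; % is scaled to controls: 0 for no effect and ±100 for the full control effect; nearly all actives have a fitted effect of over 65% in size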
#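 Cells in G418 medium, seeded 16-24 h, 37C; buffer exchange to DPBS + 1 mM CaCl2, 0.5 mM MgCl2, 0.05% BSA; cpds in DMSO + […] (300 uM stock), 30 min 37C; HTRF cAMP detection.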
# Numbers without * were called inactive; ? = inconclusive; · = not tested or not shown; [ ] = another dose, or the depositor's remark.
SMILES,ClpP mod,TRPML1 blocker,Menin-MLL FL inh,TRPML1 agonist,gsp ag,gsp antagonist
CCOC(=O)c1c(NC(=O)/C=C/C(=O)O)sc(C)c1-c1ccc(Cl)cc1,0.2%,-3.7,2.7,3.2,9.8%,?
CC1CCCc2sc3nc(SCC(=O)c4ccc(Br)cc4)nc(N)c3c21 (configuration not stated),-4.0%,-12.8,·,-0.7,·,·
CC1(C)C(=O)Nc2ccccc2N1C(=O)COC(=O)C12CC3CC(CC(O)(C3)C1)C2,2.2%,-7.9,-0.2,-0.3,-35.0%[inhibitor],12.3%
Cc1nn(Cc2ccccc2)c(C)c1C(=O)NCCN1C(=O)S/C(=C\c2ccccc2)C1=O,29.2%,-4.9,7.7,-0.2,2.7%[15.4 µM],-26.1%
COc1ccc(C(C#N)=Cc2ccc(OC)c(OC)c2)cc1,-15.7%,-5.1,·,0.3,?,·
CCOc1ccc(/C=N/NC(=O)C(=O)NCc2ccco2)cc1,-5.5%,-3.8,8.0,0.4,-11.2%,1.1%
CCN(CC(=O)NCc1ccc(F)cc1)C(=O)COc1ccccc1[N+](=O)[O-],0.4%,23.0,·,2.6,18.5%,2.7%
Cc1ccc(CNC(=O)c2nc(S(=O)(=O)Cc3ccc(C)cc3)ncc2Cl)cc1,0.5%,-18.2,·,0.2,·,·
CN1CCN(c2nc3c(c(=O)n(C)c(=O)n3C)n2Cc2ccc(Cl)cc2)CC1,2.0%,-3.2,2.8,-0.9,-14.3%,-3.9%
Nc1c(C(=O)O)sc2nc(-c3ccccc3)cc(-c3ccc(F)cc3)c12,-1.2%,-19.8,3.9,0.3,?,1.3%
CCN(C(=O)COC(=O)/C=C/c1ccco1)C1CCCCC1,1.4%,-9.0,·,1.4,18.7%,4.8%
COc1ccc(/C=N/NC(=O)CN2CCSCC2)c(OC)c1,-2.0%,22.3,·,0.4,12.3%,7.1%
COc1ccc(Br)cc1CNC(=O)CCCn1c(=O)c2cccn2c2ccccc21,?,-14.8,·,1.5,·,·
Cn1c(=O)c2cc(S(=O)(=O)NC(C(=O)NC3CCCCC3)c3ccccc3)ccc2n(C)c1=O (configuration not stated),-7.2%,17.8,-1.0,-0.3,?,8.5%
CC(C)C(=O)NC(NC(=S)NC1CCS(=O)(=O)C1)C(Cl)(Cl)Cl (configuration not stated),1.0%,-2.1,-3.6,-0.4,-21.8%,0.1%
O=C(/C=C/c1cccnc1)c1ccccc1O,?,3.7,-1.1,-0.5,?,-5.0%
COc1ccc(CNC(=O)C2CCN(S(=O)(=O)c3cccnc3)CC2)cc1,-1.8%,11.3,·,0.3,-6.2%,5.0%
CN(C)CCNC(=O)c1sc2cccc(F)c2c1Cl,·,-10.1,2.2,0.5,18.1%,8.5%
O=C(Nc1ccc(Cl)cn1)C1CCN(S(=O)(=O)c2cccs2)CC1,1.0%,7.4,-0.1,1.0,2.7%,-20.1%
O=C(CN1C(=O)/C(=C2/SC(=S)N(CCS(=O)(=O)O)C2=O)c2ccccc21)Nc1cccc(C(F)(F)F)c1,·,24.6,·,-0.8,-20.9%,-8.0%
Cc1cc(C)nc(SC2CC(=O)N(c3ccc(C)c(C)c3)C2=O)n1 (configuration not stated),1.7%,-10.1,0.2,0.1,-15.2%,4.7%
O=C(/C(=C(\[O-])c1ccccc1)[n+]1ccc2ccccc2c1)c1ccccc1,-4.6%,8.0,-6.4,1.3,-12.8%,9.1%
O=C(CCC(=O)Nc1ccccc1Cl)N/N=C/c1c[nH]c2ccccc12,0.0%,8.7,·,-0.5,-4.5%[15.4 µM],0.4%
CCO[C@H]1OC(C(=O)N2CCOCC2)=C[C@@H](c2ccc(C(F)(F)F)cc2)[C@@H]1CCCO,-0.8%,2.5,-3.6,-0.9,-0.5%,-3.5%
COc1ccc(-n2ccc(-c3nn(-c4cccc(C(F)(F)F)c4)ccc3=O)n2)cc1,1.7%,-1.8,1.4,0.1,-10.3%,1.9%
COc1ccc(NC(=O)CSc2nc(O)cc(=O)n2-c2ccc(OC)cc2)cc1,·,2.4,5.6,-0.3,?,?
O=C(Nc1ccc(Cl)cc1)OCc1cc(-c2ccccc2)on1,0.6%,12.7,-2.0,0.7,15.8%,2.0%
Cc1nc2ccccc2c2nc(NC(=O)C(F)(F)F)nn12,-1.1%,-11.5,0.4,0.0,8.0%[15.4 µM],9.5%
COc1ccc(Br)cc1/C=N/N1CCN(Cc2ccccc2Cl)CC1,-1.0%,23.7,5.1,0.0,0.0%[15.4 µM],-10.7%
Cc1nnc(SC(C)C(=O)Nc2c(C)n(C)n(-c3ccccc3)c2=O)n1N (configuration not stated),·,7.6,3.7,0.1,21.4%[15.4 µM],-6.7%
COc1ccc(C(=O)NCc2ccc(F)cc2)cc1S(=O)(=O)N1CCCC1,-1.3%,37.8,·,0.0,-27.3%,-1.4%
O=C(O)CCn1c(=O)n(CCC(=O)O)c(=O)n(CCC(=O)O)c1=O,·,-13.5,-0.7,0.1,9.6%,3.5%
COc1ccc(OC)c2[nH]c(C(=O)N3CCC(C(=O)O)CC3)cc12,-7.8%,10.6,-8.2,0.9,-21.5%,-1.1%
c1ccc(SCCCCNC2CCCC2)cc1,·,-6.9,0.6,-0.5,-3.7%[15.4 µM],11.1%
COc1cccc(N=NC2C(=O)N(C(N)=S)N=C2C)c1 (configuration not stated),·,7.5,·,0.3,-11.1%[15.4 µM],-12.1%
O=C(C[C@@H]1C/C=C\CC[C@H](Cc2ccc(F)cc2)C(=O)OC[C@@H]2CCCN2C1=O)NCCO,2.8%,3.0,·,-0.4,?,-0.4%
CCOc1ccccc1CNC(=O)Cn1nc(C)c2nn(-c3ccc(Cl)cc3)c(C)c2c1=O,6.3%,1.2,·,0.9,·,·
O=C(COc1ccc(Cl)cc1Cl)Nc1ccc(C(=O)OC2CCCCC2)cc1,-1.6%,6.6,·,2.3,·,·
Cc1ccc(Cn2c(SCC(=O)N/N=C/c3ccc(C)o3)nc3ccccc32)cc1,-0.6%,24.9,1.0,0.8,-41.8%[inhibitor],?
COC(=O)CNC(=O)CSc1nnc(C)c(=O)[nH]1,-2.0%,7.1,-0.7,0.4,0.9%,14.0%
COC(=O)C1=CNC=C(C(=O)OC)C1c1cccc(OC)c1,13.9%,7.4,3.0,-0.7,8.1%,-5.9%
C[C@@H]1CN([C@@H](C)CO)C(=O)c2cc(C#Cc3ccccc3)cnc2O[C@H]1CN(C)C(=O)c1ccccc1F,-8.0%,-3.7,·,0.0,-22.6%,·
Cc1cc(Cl)ccc1OCC(=O)NNC(=O)c1cccs1,2.1%,2.8,·,-0.6,2.6%,8.7%
CCCCCn1nc(C(=O)OCC(=O)c2c(N)n(C)c(=O)n(C)c2=O)c2ccccc2c1=O,·,1.0,1.1,2.1,-35.4%[inhibitor],-12.4%
N#Cc1ccccc1NC(=O)COC(=O)c1c[nH]c2ccccc12,-4.0%,-6.3,·,0.5,-12.0%[15.4 µM],1.1%
O=C(c1sccc1-c1ccccc1)N1CCN(S(=O)(=O)c2ccccc2F)CC1,-1.9%,17.7,·,0.1,-15.2%,-11.2%
O=c1oc2ccccc2n1CCc1ccccc1,-1.8%,9.6,0.5,0.4,0.0%,-6.8%
COc1ccccc1CN1CCC(CNC(=O)c2cnn(-c3cccc(Cl)c3)c2C2CCN(C(=O)OC(C)(C)C)CC2)CC1,0.5%,-1.5,·,1.6,·,·
CCOC(=O)c1c(C)c(C(=O)NCc2ccc(Cl)cc2)c(C)n1CC,0.8%,4.5,·,1.9,·,·
Nc1nc(N2CCCCC2)nc(N2CCCCC2)n1,1.0%,5.7,4.8,-0.9,-7.6%,-6.4%
CC(=O)N1CCCc2cc(S(=O)(=O)N(C)CC(=O)Nc3ccc(Cl)cc3C)ccc21,-2.5%,-6.5,·,0.2,·,·
Cc1[nH]c(=O)[nH]c(=O)c1/C=C/C(=O)O,0.2%,12.6,-0.6,0.0,8.5%,3.5%
COc1ccc(OC)c(Nc2ncnc3ccc(Br)cc23)c1,31.3%,28.2,0.4,1.4,23.4%,-8.8%
COc1ccc(CN2CCC(C(N)=O)CC2)cc1OCc1ccccc1,-0.2%,-6.2,-4.7,0.5,0.9%,-5.4%
O=C(Nc1ccc2oc(-c3ccc(Cl)cc3)nc2c1)c1ccc2ccccc2c1,-16.7%,-17.5,·,1.1,·,·
Cc1cc(C)cc(NC(=O)Nc2ccc3nc(N4CCN(C)CC4)cc(C)c3c2)c1,4.3%,-20.1,·,1.3,·,·
Cc1cc(F)ccc1S(=O)(=O)N1CCCOC1CNC(=O)C(=O)NCc1ccccn1 (configuration not stated),0.4%,11.9,·,-0.2,-53.6%[inhibitor],0.8%
Cc1ccc(C(=O)N(c2ccccc2)C2CC(C)N(C(=O)c3ccco3)c3ccccc32)cc1 (configuration not stated),1.2%,-2.6,4.9,-1.0,-48.3%[inhibitor],-35.4%
CCOC(=O)NC(=O)C(=CNc1ccccc1C)C(=O)NC(=O)OCC,·,7.4,1.8,-0.2,23.5%,-1.4%
CN=C1C=C/C(=N/N=c2\ccn(O)cc2C)C=C1C,0.0%,0.1,4.5,0.4,-1.1%[15.4 µM],?
# Next section:
SMILES,ClpP mod,TRPML1 blocker,Menin-MLL FL inh,TRPML1 agonist,gsp ag,gsp antagonist
O=C(Cn1c(=O)cnc2ccccc21)NNC(=O)c1ccc(Cl)cc1,1.9%,44.7,·,0.4,29.8%,5.5%
O=C(OCC(=O)N1CCCCCC1)c1ccc(Br)c(S(=O)(=O)N2CCOCC2)c1,-13.0%,2.8,·,0.1,26.3%,8.1%
COc1ccc(OCC(=O)N2CCc3ccccc3C2)cc1,0.7%,-2.9,-0.9,-0.3,11.0%,2.4%
COCC(C)NC(=O)c1cc(-c2ccc(O)cc2)on1 (configuration not stated),0.6%,-23.5,-5.0,0.1,?,3.4%
Cc1ccc(CN2CCN(c3ccccc3)CC2)o1,·,-0.6,2.4,-0.3,-25.6%,11.9%
COCCCn1c(SCC(=O)NC(C)(C)C)nnc1-c1ccccc1,-2.8%,55.6,-4.1,0.1,-9.9%,-0.3%
CCC(C)Sc1ccc([C@@H]2[C@H]3C(=O)N(CC)C(=O)[C@H]3[C@]3(C(=O)OC)CCCN23)cc1OC (some centres not stated),-4.3%,35.0,·,-0.2,4.5%,-7.8%
Cn1c(=O)c2[nH]c(N=NNc3ccccc3F)nc2n(C)c1=O,·,6.0,5.3,0.0,14.7%[15.4 µM],-9.4%
CN1CCN(c2ccc(Cl)cc2NC(=O)/C=C/c2ccc(F)cc2)CC1,·,28.4,1.1,0.5,7.7%[15.4 µM],·

# Screening data deposited in PubChem BioAssay by National Center for Advancing Translational Sciences (NCATS).
